Screening data as filed in PubChem BioAssay.
TRPV1 potentiator: human TRPV1 potentiation. Q8NER1. potentiation, % at 8.33 µM. 320,000 tested, 0.02% active. TRPV1-expressing cells, Fluo-8 calcium influx, capsaicin EC20 potentiation; host cell line not named in the record; control for the full effect not named in the record; active means potentiation above 80%; inconclusive means 30% to 80%; inactive means below 30%; also: 0% is about no effect
Target sequence (Q8NER1 whole entry, looked up): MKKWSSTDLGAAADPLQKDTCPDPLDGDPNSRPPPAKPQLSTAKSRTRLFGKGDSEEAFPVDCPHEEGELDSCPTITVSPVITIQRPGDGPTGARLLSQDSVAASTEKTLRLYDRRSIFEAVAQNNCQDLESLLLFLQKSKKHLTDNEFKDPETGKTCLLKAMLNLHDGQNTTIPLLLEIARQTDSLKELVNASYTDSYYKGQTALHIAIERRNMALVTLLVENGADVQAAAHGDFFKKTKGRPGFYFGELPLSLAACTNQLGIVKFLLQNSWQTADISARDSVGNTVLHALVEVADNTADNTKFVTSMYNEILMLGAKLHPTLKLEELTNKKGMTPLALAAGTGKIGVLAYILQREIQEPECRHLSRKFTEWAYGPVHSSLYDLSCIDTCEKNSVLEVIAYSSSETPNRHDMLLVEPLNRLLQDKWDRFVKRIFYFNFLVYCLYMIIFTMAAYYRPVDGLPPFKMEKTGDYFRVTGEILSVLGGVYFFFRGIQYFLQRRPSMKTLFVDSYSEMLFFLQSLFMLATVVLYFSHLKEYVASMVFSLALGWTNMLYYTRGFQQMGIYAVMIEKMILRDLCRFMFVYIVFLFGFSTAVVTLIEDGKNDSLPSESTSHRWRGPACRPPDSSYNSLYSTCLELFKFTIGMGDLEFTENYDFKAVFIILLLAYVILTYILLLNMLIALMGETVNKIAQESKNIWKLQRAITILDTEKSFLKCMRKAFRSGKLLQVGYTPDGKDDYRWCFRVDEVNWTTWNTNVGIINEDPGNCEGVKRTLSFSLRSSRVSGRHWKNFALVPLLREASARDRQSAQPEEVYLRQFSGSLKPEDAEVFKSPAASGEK
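TRPV1-expressing cells were cultured overnight at 35.5C and loaded with Fluo-8 calcium dye for 40 to 90 min at room temperature. After a 10 s baseline, compound was added and calcium influx was read kinetically for 3 min (ex 480/em 520 nm).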
gsp ag: agonists of gsp mutant (McCune-Albright syndrome). gsp mutant cells, cAMP HTRF, 30 min; control for the full effect not named in the record. Potency, µM (series often up to 76.9 µM), without a hit: top-dose activation (cAMP increase), usual class: activators. 340,000 tested, 0.13% active; active = well fitted activation curve with a large enough effect; inconclusive = small, poorly fitted or top-dose-only effect, or another doubt; inactive = no such curve, though single readings can be large or run the other way; cell line not stated here;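 also: phosphodiesterase inhibitor Ro 20-1724 added with compounds to block cAMP breakdown; potency is read from the fitted curve at half-maximal effect; nearly all actives have a fitted effect of over 60% in size; about a fifth of the inactives were tested at one dose only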
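Cells in DMEM/10% FBS with G418 were pretreated with compounds in DMSO plus […] (300 uM stock) for 30 min at 37C. cAMP was measured by HTRF (cAMP-d2 plus anti-cAMP antibody-K) after 30 min at room temperature.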
Sfp inh: blocks B. subtilis Sfp PPTase activity. Q9F4F7. Biochemical Sfp PPTase activity, qHTS. Potency, µM, for the others: max response, negative = inhibition, actives largely listed as inhibitors. 310,000 tested, 3.5% active. AID 1490; active = well fitted inhibition curve with a large enough effect; inconclusive = small, poorly fitted or top-dose-only effect, or another doubt; inactive = no such curve, though single readings can be large or run the other way;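 also: the enzyme is Sfp with the accession as filed and its product quenches rhodamine fluorescence; potency is read from the fitted curve at half-maximal effect; 0% = enzyme reaction without inhibitor and -100% = no enzyme wells; top concentration of the series not given in the record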
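Compounds were incubated with enzyme (final 15 nM) for 15 min at room temperature before substrate addition started the reaction. Fluorescence at 525 nm excitation, 598 nm emission was recorded immediately and after 30 minutes.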
CtBP-E1A inh: CtBP/E1A binding inhibition. 340,000 tested, 0.49% active. AlphaScreen GST-E1A/His-CtBP binding, 1536-well; hits give low values; control for the full effect not named in the record. activity change, % (no concentration beside the values); in the data active means activity change below about -65%; inconclusive means about -30% to -65%; inactive means above about -30%; also: % is scaled to controls: 0 for no effect and ±100 for the full control effect; compound concentration not given in the record
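Homogeneous bead-based format: GST-tagged E1A captured on glutathione donor beads, His-tagged CtBP on nickel acceptor beads; compounds precede bead addition by 2 h at 37 °C.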
ClpP mod: qHTS Assay for Activators of ClpP. purified B. subtilis ClpP, FRET peptide cleavage, 20 min. 340,000 tested, 1.9% active. AID 651965, 2013. Potency, µM (series often up to 57.5 µM), without a hit: top-dose activity change, negative = active; active = well fitted falling curve with a large enough effect; inconclusive = small, poorly fitted or top-dose-only effect; inactive = no such curve, though single readings can be large or run the other way; also: potency is read from the fitted curve at half-maximal effect; the source files actives as falling curves though it sought activators and does not explain the sign; nearly all actives have a fitted effect of over 65% in size; many hits overshoot -100%
Target sequence (P80244 whole entry, looked up): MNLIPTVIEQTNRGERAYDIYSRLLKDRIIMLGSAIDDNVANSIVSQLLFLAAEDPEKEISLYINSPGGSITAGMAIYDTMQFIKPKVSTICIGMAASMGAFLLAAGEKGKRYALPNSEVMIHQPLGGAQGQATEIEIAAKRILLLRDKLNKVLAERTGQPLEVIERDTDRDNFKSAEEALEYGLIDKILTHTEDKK
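Buffer: 100 mM Tris/HCl pH8, 100 mM KCl, 0.05% low protease BSA, 2.5% glycerol, 0.01% Tween-20. ClpP 10 microg/mL final; 20 min RT; delta FRET normalized to ADEP and DMSO controls.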
gsp antagonist: gsp mutant antagonism. 340,000 tested, 0.4% active. gsp-mutant cells, cAMP HTRF, 30 min; control for the full effect not named in the record. Potency, µM (series often up to 76.9 µM), for the others: top-dose activity change, negative = inhibition, usual class: inhibitors; active = falling curve of any shape with a large fitted effect; inconclusive = falling curve, mostly with a smaller effect; inactive = flat or rising curve; cell line not stated here;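 also: intracellular cAMP measured with PDE inhibitor Ro 20-1724 present during compound exposure; potency is read from the fitted curve at half-maximal effect; % is scaled to controls: 0 for no effect and ±100 for the full control effect; nearly all actives have a fitted effect of over 65% in size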
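HTRF cAMP measurement after 30 min RT detection following 30 min, 37C compound treatment alongside […] (added as 300 uM solution) in G418-selected cells seeded at 2000/well and grown 16–24 h.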
Menin-MLL FL inh: inhibitors of human menin-MLL interaction, wild-type MLL peptide; 290,000 tested, under 10 active; AID 1766; Fluorescence polarization, fluorescein-MLL peptide displacement from menin; FP activity change, % at 61.4 µM; inconclusive = falling polarisation curve, or a change in total fluorescence; inactive = total fluorescence flat and polarisation flat or rising; no compound was filed as active; the % refers to the polarisation; negative = inhibition;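 also: % of control where 0% means no effect; inhibitors lower the polarisation; unlabelled MLL peptide was the positive control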
Starred values were filed as active, the others as inactive; ? = inconclusive; . = no result given; [ ] = remark or other dose.

| Molecule | TRPV1 potentiator | gsp ag | Sfp inh | CtBP-E1A inh | ClpP mod | gsp antagonist | Menin-MLL FL inh |
| --- | --- | --- | --- | --- | --- | --- | --- |
| C=CCN(CC=C)C(=O)C(=O)c1ccn(-c2c(C)csc2C(=O)OC)c1 | -5.2 | -1.2% | 8.5% | . | -2.0% | -4.6% | -4.5 |
| CSc1ccc(NS(=O)(=O)c2ccc(-n3cnnn3)cc2)cc1 | -13.0 | -4.0%[15.4 µM] | 0.8% | -1.2 | -2.7% | 1.3% | . |
| O=C(Nc1ccc2c(c1)CCC2)C1CCN(c2ncccn2)CC1 | -15.8 | 4.7% | 10.9% | 5.0 | -5.4% | -3.0% | 3.1 |
| O=C(O)c1ccccc1C(=O)c1ccc(F)c(F)c1 | . | 11.6% | . | -0.9 | -1.3% | 4.9% | . |
| CC[n+]1ccccc1/C=C/c1ccc(N(C)C)cc1 | -1.1 | ? | -4.7% | -9.3 | 1.2% | ? | ? |
| C/C(Cc1ccccc1)=N\NC(=O)CNC(=O)c1cccc(Br)c1 | -0.3 | 2.2%[15.4 µM] | 3.8% | 0.3 | . | 3.5% | 6.7 |
| COC(=O)/C=C/c1ccc(OC(=O)OC)c(OC(=O)OC)c1 | -0.8 | -22.7% | -1.2% | 2.4 | -6.1% | 9.9% | 1.4 |
| COc1ccccc1C1/C(=C(/O)c2ccccc2)C(=O)C(=O)N1CC(C)O (centres undefined) | 0.8 | -56.9%[inhibitor] | 6.8% | 2.1 | 0.2% | -1.2% | 2.1 |
| Cc1ccc2sc3ccc(NC(=O)c4ccccc4Cl)cc3c(=O)c2c1 | . | 4.0% | -1.3% | 5.8 | ? | 3.4% | 18.3 |
| O=S(=O)(c1ccccc1)N1CCN(CCc2ccccc2)CC1 | -8.5 | -1.8%[15.4 µM] | 1.9% | 5.2 | -0.7% | 12.6% | -1.8 |
| CN1C2CCC1CC(NS(=O)(=O)c1cccc(C(F)(F)F)c1)C2 (centres undefined) | -13.5 | 20.1% | 8.8% | 3.3 | 2.0% | 10.6% | . |
| COc1cc(CN2CCN(C(=O)c3cccc4ccccc34)CC2)cc(OC)c1O | 5.7 | -53.2%[inhibitor] | -29.0% | 10.4 | -0.5% | -2.0% | -5.8 |
| COc1cc(OC)cc(N2C(=O)CSCC2=O)c1 | -0.8 | -17.8% | 14.7% | . | 2.6% | -5.5% | 2.1 |
| CSCC(C)N1CCC(CCC(=O)NC2CC2)CC1 (centres undefined) | 0.2 | 2.7% | 6.8% | . | 1.9% | -2.2% | . |
| C=CCN1C(=O)/C(=C2/Sc3ccc(OC)cc3N2CC)SC1=S | 10.0 | 23.5% | 9.3% | . | -2.4% | -9.1% | ? |
| Cc1ccc(NC(=O)C(=O)C2C(=O)Nc3ccccc32)cc1 (centres undefined) | 6.5 | 0.1%[15.4 µM] | 14.4% | 1.6 | . | 1.3% | 1.8 |
| O=C(Nc1ccc2c(c1)OCCO2)c1ccc(Cl)c(S(=O)(=O)N2CCCCC2)c1 | -15.7 | -47.3%[inhibitor] | 8.2% | ? | -4.8% | -6.3% | -0.5 |
| Cc1ccc(/C=C/C2=NN(Cc3ccccc3Cl)C(=O)CC2)cc1 | -10.3 | 9.3% | ? | 3.2 | -21.5% | -1.9% | 1.4 |
| COc1ccc(N2CC(O)=C(c3nc(-c4ccc(F)cc4)cs3)C2=N)cc1OC | -4.5 | 25.0%[15.4 µM] | -10.8% | -0.2 | . | ? | 1.6 |
| COc1ccc(S(=O)(=O)Nc2ccc3c(c2)OCO3)cc1C(=O)O | 7.5 | -55.5%[inhibitor] | 25.1% | 7.0 | -1.4% | 4.9% | 5.1 |
| COc1ccc(-n2ncc3c(Nc4cccc(C)c4)ncnc32)cc1 | 17.9 | 9.8% | -28.5% | -10.7 | ? | 0.1% | -1.4 |
| CCOC(=O)C1CCCN(C(=O)c2ccco2)C1 (centres undefined) | 0.4 | -16.0% | -13.6% | 0.2 | -1.3% | 3.0% | 2.7 |
| O=C(Nc1nnc(SCCC2OCCO2)s1)C1CC(=O)N(c2ccc(F)cc2)C1 (centres undefined) | -5.2 | 8.8% | -29.9% | 13.5 | -0.3% | -2.6% | . |
| N/C(=N\OC(=O)Cc1ccc(Cl)cc1)c1ccccn1 | -17.4 | 27.5% | 9.7% | -0.3 | -2.3% | 10.7% | -2.2 |
| Cc1ccccc1S(=O)(=O)Oc1ccc2ccc(O)cc2c1 | 7.6 | -7.3% | 19.5% | -2.1 | 0.2% | -6.0% | 6.1 |
| O=C(NCc1ccccn1)c1ccc(CS(=O)(=O)Cc2ccc(Cl)cc2)o1 | -5.2 | -18.5% | 4.3% | 6.3 | 1.1% | -0.3% | -0.1 |
| N/C(=N\OC(=O)Cc1ccccc1)c1ccccc1Cl | -4.8 | -57.1%[inhibitor] | 12.7% | . | -0.6% | 9.6% | 0.4 |
| CCOc1ccc(C2NC(=O)C(C#N)=C(S)N2c2ccc(C)cc2)cc1OC (centres undefined) | 21.5 | -45.3%[inhibitor] | 44.7µM* | 6.4 | -4.7% | -7.9% | 3.3 |
| Cc1ccc(S(=O)(=O)NCCC(=O)OC(C)C(=O)NC2CC2)cc1 (centres undefined) | -3.8 | 10.9% | . | 10.9 | 1.3% | 7.9% | . |
| O=C(Nc1ccccc1F)c1cc(-c2ccco2)nc2ccccc12 | . | -5.3%[15.4 µM] | . | 3.7 | 0.1% | -5.6% | . |

Retrieved by compound from above (four):
| Molecule | TRPV1 potentiator | gsp ag | Sfp inh | CtBP-E1A inh | ClpP mod | gsp antagonist | Menin-MLL FL inh |
| --- | --- | --- | --- | --- | --- | --- | --- |
| O=C(Nc1nnc(SCCC2OCCO2)s1)C1CC(=O)N(c2ccc(F)cc2)C1 (centres undefined) | -5.2 | 8.8% | -29.9% | 13.5 | -0.3% | -2.6% | . |
| COc1ccccc1C1/C(=C(/O)c2ccccc2)C(=O)C(=O)N1CC(C)O (centres undefined) | 0.8 | -56.9%[inhibitor] | 6.8% | 2.1 | 0.2% | -1.2% | 2.1 |
| COc1ccc(S(=O)(=O)Nc2ccc3c(c2)OCO3)cc1C(=O)O | 7.5 | -55.5%[inhibitor] | 25.1% | 7.0 | -1.4% | 4.9% | 5.1 |
| O=C(O)c1ccccc1C(=O)c1ccc(F)c(F)c1 | . | 11.6% | . | -0.9 | -1.3% | 4.9% | . |

Carrying on:
| Molecule | TRPV1 potentiator | gsp ag | Sfp inh | CtBP-E1A inh | ClpP mod | gsp antagonist | Menin-MLL FL inh |
| --- | --- | --- | --- | --- | --- | --- | --- |
| COc1ccc(C(=O)CC(=O)C(=O)Nc2ccccc2Cl)cc1 | -3.9 | -11.7%[15.4 µM] | 16.1% | -3.1 | . | 8.3% | 5.1 |
| C/C(=N\OC(=O)c1ccccc1)c1cc(-c2ccc(Cl)cc2)no1 | . | 0.8% | 13.2% | 2.0 | 1.2% | -14.4% | 0.1 |
| CCOC(=O)c1c(NC(=O)c2ccno2)c2cc([N+](=O)[O-])ccc2n1C | -6.6 | 9.7%[15.4 µM] | 11.9% | 12.7 | -1.3% | -15.1% | 2.0 |
| S=C(Nc1ccc(Cl)cc1Cl)NC1CCN(Cc2ccccc2)CC1 | -6.2 | -7.1% | 4.3% | -5.0 | -2.2% | 26.0% | -0.7 |
| CCCN(C(=O)CCCSc1nc2ccccc2[nH]1)c1c(N)n(Cc2ccccc2)c(=O)[nH]c1=O | -0.5 | -13.3%[15.4 µM] | . | -4.2 | 0.4% | 4.6% | . |
| CC1C(=O)N(Cc2cn(CCC3OCCO3)nn2)CCS(=O)(=O)N1Cc1ccc(-c2ccc(Cl)cc2)cc1 (centres undefined) | . | 12.0% | . | 3.6 | 0.3% | . | . |
| Cc1ccc(CNC(=O)Nc2cccc(C)c2)cc1 | -4.3 | -19.5% | 21.5% | . | 0.8% | -4.6% | -1.6 |
| CCOc1ccc(NC(=O)CN(C)C(=O)CN2C(=O)NC3(CCCC3)C2=O)cc1OCC | 0.4 | 0.0%[15.4 µM] | . | 0.1 | . | -4.0% | . |
| COc1ccc(NC(=O)CS(=O)(=O)Cc2nc(-c3ccc(C)cc3)oc2C)cc1 | -14.7 | ? | 8.9% | -5.6 | -23.4% | -1.2% | 5.8 |
| CC1(C)CC(=O)C=C(c2ccc(COC(=O)c3cccc(C(F)(F)F)c3)cc2)C1=O | . | -35.3%[inhibitor] | . | 4.1 | 0.9% | . | . |
| COC(=O)C1CCN(C(=O)COC(=O)COc2ccc(C#N)cc2)CC1 | 2.3 | -20.7%[15.4 µM] | 21.8% | -14.3 | . | ? | -3.7 |
| CCN1C[C@@H]2[C@@H]3C(=O)N(Cc4ccccc4)C(=O)[C@@H]3[C@](C)(C1=O)N2C(=O)c1ccc(C(C)(C)C)cc1 | . | . | . | 7.1 | 0.4% | 0.5% | . |
| COc1cccc(/C=N/NC(=O)C(=O)N2CCCCCC2)c1OC | -19.9 | 21.1% | 15.7% | 0.4 | -3.0% | 6.2% | . |
| O=c1[nH]c(-c2ccc(Cl)cc2)nc2c1cnn2-c1ccccc1 | 5.9 | . | 17.1% | . | . | . | 3.2 |
| CCN(CC(=O)NCc1ccc(Cl)cc1)C(=O)CCOc1ccc(C)cc1 | 7.6 | -23.8% | . | -16.8 | -3.4% | 0.3% | . |
| O=C/C(=C\Nc1ccc(Cl)cn1)c1nc2cc(Cl)ccc2o1 | -8.2 | -4.2% | 4.7% | 1.3 | -1.4% | 9.7% | ? |
| N=c1c(S(=O)(=O)c2ccccc2)cc2c(=O)n3ccccc3nc2n1C1CCCC1 | -9.6 | -0.9% | -29.3% | -19.2 | . | -0.4% | -27.0 |
| CC1CC(Nc2cccc(O)c2)=CC(=O)O1 (centres undefined) | 3.4 | 2.9% | 17.9% | -3.4 | 1.7% | 7.1% | -0.4 |
| Cc1cc(-c2ccccc2)n(-c2ccccc2)n1 | 24.4 | ? | 6.7% | 33.5 | . | -9.8% | -1.1 |
| CC(=O)Nc1ccc(NC(=O)CSc2nnc(NC(=O)c3cccc(F)c3)s2)cc1 | 9.0 | 16.9%[15.4 µM] | 22.9% | -8.2 | -1.5% | -23.8% | . |
| Cc1ccc(CN2CCN(C3CCOCC3)CC2CCO)cc1 (centres undefined) | 0.3 | 27.4% | 3.0% | -6.3 | . | 10.1% | 2.8 |
| C=CCn1cccc(C(=O)Nc2ccc(N(C)C)cc2)c1=O | -3.1 | -8.4% | 9.9% | -17.9 | 0.8% | -26.4% | 4.0 |
